Vif TR-FRET – inhibitors of Vif binding to APOBEC3G peptide, primary screen, biochemical, TR-FRET, GST-Vif 1-94, biotin-A3G peptide, dose response retest (AID 1117319) | Virion infectivity factor (Human immunodeficiency virus type 1 group M subtype B (isolate … | TR-FRET GST-Vif / biotin-A3G peptide binding; higher % means a stronger effect; test concentration not given here; strong numbers were not always called active | inhibition, %, or IC50 in µM where a hit was titrated | actives 0.57% (n = 260,000);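 active = above the screen mean plus three standard deviations and confirmed in dose response; inconclusive = results disagree or hit not tested in dose response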;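 also: Vif residues 1-94 fused to GST binding biotinylated APOBEC3G peptide 110-148; 0% = full assay without inhibitor and 100% = GST in place of GST-Vif; retest series ran down from 100 µM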
MLL AF4-AF9 inh – inhibitors of AF4 peptide binding to AF9, primary screen, biochemical, AlphaScreen, biotin-AF4 peptide, FLAG-AF9, single point | AID 651704, 2012 | actives 0.47% (n = 350,000) | inhibition, % at 10 µM;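 active = every replicate reaching a set inhibition limit, whatever the replicate mean, cut at about 25% in these data; inconclusive = mean inhibition reaches that limit but some replicates miss it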;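 also: 0% = plate neutral control median and 100% = total signal loss; the record names both 10 and 1 µM as test concentration; the first replicate is given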
FGF22 binding – binders of human FGF22 protein, primary screen, FGF22 synaptogenesis inhibitor project, biophysical, thermal shift, single point | Fibroblast growth factor 22 (Homo sapiens), Q9HCT0 | recombinant FGF22 thermal shift, SYPRO orange fluorescence; percent of sucrose octasulfate shift, DMSO zero | calls only at 9.99 µM | actives 1.5% (n = 340,000);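 active = melting point raised past a set limit in the mean and every replicate; inconclusive = no clear call; three in four hits are not shown here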
Target sequence (Q9HCT0 whole entry, looked up): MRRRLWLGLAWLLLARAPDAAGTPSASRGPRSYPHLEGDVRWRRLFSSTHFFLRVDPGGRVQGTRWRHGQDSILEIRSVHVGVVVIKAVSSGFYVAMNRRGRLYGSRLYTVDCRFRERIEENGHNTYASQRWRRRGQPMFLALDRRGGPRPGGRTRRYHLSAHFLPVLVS
UCH37 inh – inhibitors of human UCH37 deubiquitinase, primary screen, biochemical, Ub-AMC cleavage, fluorescence; purified proteasome/UCH37; inhibition, % (concentration not given with the values); actives 0.33% (n = 330,000);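 active = mean of two replicates above 20%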;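 also: 0% = compound-free wells with enzyme and 100% = wells lacking proteasome; stock transfer was 100 nL into about 20 µL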
Target sequence (Q9Y5K5 whole entry, looked up): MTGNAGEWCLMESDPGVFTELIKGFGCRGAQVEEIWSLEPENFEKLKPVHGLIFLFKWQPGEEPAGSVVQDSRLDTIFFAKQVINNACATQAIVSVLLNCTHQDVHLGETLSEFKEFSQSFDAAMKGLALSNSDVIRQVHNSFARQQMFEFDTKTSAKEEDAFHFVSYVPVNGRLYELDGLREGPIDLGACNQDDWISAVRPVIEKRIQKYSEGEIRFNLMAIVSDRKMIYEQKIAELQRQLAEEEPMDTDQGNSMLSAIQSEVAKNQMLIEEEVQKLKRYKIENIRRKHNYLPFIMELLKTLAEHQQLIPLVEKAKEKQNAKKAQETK
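Schedule: 30 min plus 25 min, room temperature / Material: human UCH37 within purified proteasomes / Technique: AMC fluorescence intensity at 355/460 nm / Buffer or medium: pH 7.4 Tris-HCl (50 mM) with ovalbumin, ATP-MgCl2, DTT / Controls: wells without proteasome as full block, compound-free enzyme plus substrate as uninhibited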
E coli growth – E. coli growth inhibition, primary screen, OD600. Escherichia coli growth, 23 h; stronger effect = lower value. OD600 absorbance (test concentration not listed). actives 0.21% (n = 330,000). AID 1053175, 2014;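 active = OD600 absorbance below the run mean of sample wells minus 3.6 SD, in any replicate, cut at about 0.56 in these data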;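 also: stock transfer was 300 nL into about 60 µL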
HNF4A DNA FP – change in binding of human HNF4A to DNA, primary screen, biochemical, fluorescence polarization, FITC-DNA | Hepatocyte nuclear factor 4-alpha (Homo sapiens), P41235 | 1 h | activity change, % at 10 µM | actives 0.3% (n = 360,000) | AID 1224865, 2016; in the data active = activity change above about 30%, passing the limit was not always enough;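 also: controls were the assay level and a saturating level of protein; the project sought stronger binding though the title names inhibitors; some compounds called inactive have numbers as strong as hits; positive values seem to mean higher polarization but the record does not say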
Target sequence (P41235 whole entry, looked up): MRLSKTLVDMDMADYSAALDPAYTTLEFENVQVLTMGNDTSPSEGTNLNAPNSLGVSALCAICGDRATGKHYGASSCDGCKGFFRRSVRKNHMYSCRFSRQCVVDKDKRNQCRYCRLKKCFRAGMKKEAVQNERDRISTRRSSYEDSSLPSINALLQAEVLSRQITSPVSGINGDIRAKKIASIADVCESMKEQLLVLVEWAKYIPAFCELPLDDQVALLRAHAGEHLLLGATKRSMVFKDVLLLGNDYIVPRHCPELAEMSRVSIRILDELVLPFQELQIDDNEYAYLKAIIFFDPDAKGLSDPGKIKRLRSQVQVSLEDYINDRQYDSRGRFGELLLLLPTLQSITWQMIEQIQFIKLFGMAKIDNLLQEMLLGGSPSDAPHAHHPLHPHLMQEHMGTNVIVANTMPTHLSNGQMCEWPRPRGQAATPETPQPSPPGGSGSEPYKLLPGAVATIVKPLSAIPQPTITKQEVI
RanGTP-Imp inh – inhibitors of RanGTP-importin-beta interaction, primary screen, biochemical, FRET, CFP-Ran, YFP-importin-beta, homogeneous | Ran GTPase (GTP-bound) - importin-beta complex | cell-free CFP-Ran/YFP-importin-beta FRET ratio | inhibition, % (concentration not given with the values) | actives 1.1% (n = 300,000) | AID 2216, 2009;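 active = most replicates above 15%; inconclusive = exactly half above 15%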;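 also: 0% = DMSO wells and 100% = Ran loaded with GDP instead of GTP; wells of about 40 µL received 100 nL stock; the first replicate is given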
* hit, by the source's call; i = inactive; ? = inconclusive; . = not tested or not shown; + = active, no number. Only part of the results is shown; count on the stated rates, not on these rows.

Molecule,FGF22 binding,UCH37 inh,Vif TR-FRET,HNF4A DNA FP,E coli growth,MLL AF4-AF9 inh,RanGTP-Imp inh
CCC(C)Sc1ccc([C@H]2N[C@@](C)(C(=O)OC)[C@H]3C(=O)N(CC)C(=O)[C@@H]23)cc1 (stereo partly drawn),i,-2.5,.,3.8,.,5.3,-1.8
CCOC(=O)C1=C(C)NC(C)=C(C(=O)OCC)C1c1ccncc1,i,.,8%,1.4,.,-2.2,.
COc1ccc(C(=O)NC(=S)NNC(=O)c2c(-c3ccccc3)noc2C)cc1,i,3.0,-1%,-0.9,0.68,-2.2,3.4
CCc1cc2cc(C(=O)Nc3ccc(C)cc3)sc2s1,.,-1.9,-40%,-3.0,0.7,.,0.5
O=c1c2cnn(-c3ccccc3)c2nc(-c2ccco2)n1-c1ccccc1,.,4.9,1%,1.8,0.69,.,.
O=C(NC1CCCC1)C1CCN(C(=O)c2ccc(-c3ccccc3)cc2)CC1,i,2.4,-2%,-3.0,0.65,-2.6,-5.8
Cc1cc(OCC(=O)N2CCc3ccccc3C2)c(C)cc1Br,+,.,-4%,-4.0,.,-4.6,-3.0
COc1ccc(C(=O)c2sc(NC(C)C)nc2N)cc1OC,.,12,2%,2.9,0.72,.,.
CC1CCCN(C(=O)C2COc3ccccc3O2)C1 (stereo not drawn),i,1.9,.,2.6,0.64,-2.2,5.0
COC(=O)c1cc(NC(=O)c2nn(C)c(=O)c3ccccc23)cc(C(=O)OC)c1,i,-9.3,5%,4.1,0.62,-0.6,-3.6
CSc1nc2n(n1)C(c1cccc(F)c1)C(C(=O)Nc1ccc(C)cc1C)=C(C)N2 (stereo not drawn),.,2.4,-33%,-2.4,0.75,.,4.0
O=C(COc1ccc(Br)cc1F)Nc1nnc(C2CC2)s1,i,3.0,.,4.5,0.71,-3.1,.
CN(Cc1ccccc1)C(=O)c1ccc(NC(=O)Cc2ccc(NC(=O)C3CCCN(C(=O)C4CCCCC4)C3)cc2)cc1 (stereo not drawn),.,2.2,.,-3.7,0.69,-4.0,.
Clc1cccc(CN2CCN(Cc3nc(CCc4ccccc4)no3)CC2)c1,i,0.4,14%,-0.8,0.68,-2.0,2.1
COc1cc(CNc2ccc3[nH]c(=O)[nH]c3c2)cc(Br)c1OCc1ccc(F)cc1,i,0.8,0%,2.4,0.71,-4.3,5.2
COc1cccc(C(=O)c2cc3ccc(O)cc3oc2=O)c1,i,7.5,1%,2.3,0.71,-9.3,26*
O=C(N/N=C/c1ccc(Cl)cc1)c1cc(-c2cccnc2)nc2ccccc12,i,.,-7%,-1.5,.,-2.4,-2.4
O=C1COc2ccc(C(=O)CSc3nnc(Cc4ccccc4)o3)cc2N1,i,3.7,-34%,6.0,0.68,0.3,?
CCOc1cccc(-c2c(C(=O)N/N=C/c3ccsc3)nnn2-c2nonc2N)c1,i,.,.,0.6,.,-10,6.8
C[N+](C)(C)CCNC(=O)c1cc[n+](Cc2ccccc2)c(/C=N/O)c1,i,.,.,3.0,.,-0.2,-4.3
COc1cc(C(=O)N2CCN(C)CC2)cc(OC)c1OC,i,6.6,.,0.6,0.68,-4.9,-0.6
COCc1c(C(=O)OCC(=O)NCc2ccco2)oc2ccccc12,i,1.3,.,-0.9,0.71,-0.5,.
CC(=O)NCCNC(=O)C1(C)Cc2c(-c3cccc(NC(C)=O)c3)ccnc2O1 (stereo not drawn),i,.,.,1.4,.,-1.7,.
CS(=O)(=O)N(CC(=O)NCCSCc1ccccc1)c1ccccc1F,i,3.5,.,2.0,0.72,-2.9,-7.3
COc1ccccc1OCC(=O)NNC(=O)c1c(-c2ccccc2Cl)noc1C,i,2.5,29%,5.5,0.68,-1.6,1.3

Laid out differently: results already given.
COc1cc(CNc2ccc3[nH]c(=O)[nH]c3c2)cc(Br)c1OCc1ccc(F)cc1
  FGF22 binding = i; UCH37 inh = 0.8; Vif TR-FRET = 0%; HNF4A DNA FP = 2.4; E coli growth = 0.71; MLL AF4-AF9 inh = -4.3; RanGTP-Imp inh = 5.2

COc1cccc(C(=O)c2cc3ccc(O)cc3oc2=O)c1
  FGF22 binding = i; UCH37 inh = 7.5; Vif TR-FRET = 1%; HNF4A DNA FP = 2.3; E coli growth = 0.71; MLL AF4-AF9 inh = -9.3; RanGTP-Imp inh = 26*

The results go on.
Molecule,FGF22 binding,UCH37 inh,Vif TR-FRET,HNF4A DNA FP,E coli growth,MLL AF4-AF9 inh,RanGTP-Imp inh
Cn1cncc1C#Cc1ccc2cc(CCCO)oc(=O)c2c1,i,-12,.,0.8,0.64,-1.8,.
COc1ccc(OCC(=O)N2CCN(c3cccc(C(F)(F)F)c3)CC2)cc1,.,1.7,0%,-0.4,0.63,.,7.4
CCc1noc(C)c1C(=O)NNC(=O)c1ccc(Br)cc1,i,3.4,-8%,0.7,0.69,-1.9,-1.7
O=C(CCS(=O)(=O)c1ccccc1)Nc1nccs1,i,0.6,0%,-3.9,0.76,-5.2,-1.3
CC(C)N=C(NS(=O)(=O)c1ccccc1)C(Cl)(Cl)Cl,i,1.9,.,0.3,0.64,-3.1,-0.7
COC(=O)[C@H]1C[C@@]2(O)CN(S(=O)(=O)c3ccc(C)cc3)C[C@@]2(OC(=O)Nc2c(C)noc2C)C[C@H]1C(=O)OC,i,.,2%,3.8,.,-1.3,.
NC(=O)c1cc(C(=O)c2ccc(Cl)cc2)c[nH]1,i,5.5,-3%,4.5,0.67,0.2,-1.2
CCOc1cccc(CN2CCCC(CNC(=O)c3cccc(OC)c3OC)C2)c1 (stereo not drawn),i,1.9,.,0.2,0.68,-9.3,?
O=C(COC(=O)c1ccccc1O)NCc1ccco1,i,-2.3,8%,-0.3,0.68,-2.3,.
O=[N+]([O-])c1cccc(-c2c[n+]3c(n2-c2ccccc2)SCC3)c1,i,3.0,9%,-1.8,0.73,-2.6,.
Cc1ccc(C(=O)Nc2ccc(C)c(S(=O)(=O)Nc3ccccc3Cl)c2)s1,i,-0.4,19%,-4.5,0.69,7.5,-4.6
Cc1ccc(NC(=O)CCC(=O)c2ccccc2)cc1,i,.,5%,-1.1,.,-15,.
O=C(COC(=O)c1ncc(Cl)c(Cl)c1Cl)NC(=O)c1ccccc1,.,-1.2,-10%,-3.3,0.62,.,0.5
CC(NC(=O)CN(c1ccc(Br)cc1)S(C)(=O)=O)c1ccccc1 (stereo not drawn),i,2.5,.,-0.9,0.69,1.3,-0.1
C=CCC[C@H](Cc1ccc(F)cc1)C(=O)OC[C@@H](Cc1c[nH]c2ccccc12)NC(=O)[C@H](CC=C)CC(=O)N(CCO)Cc1ccccc1,i,.,.,2.8,.,3.1,.
COCC(=O)N1CCC(Oc2ccc(C(=O)N(C)C(C)c3ccon3)cc2)CC1 (stereo not drawn),i,2.1,.,3.0,0.63,-0.5,6.1
CC1=C(C(=O)OCc2ccccc2)C(c2ccccc2OS(=O)(=O)c2ccc([N+](=O)[O-])cc2)NC(=O)N1CCCC(=O)O (stereo not drawn),i,0.9,.,1.1,0.78,12,-3.4
Fc1ccc(-c2csc(/C=C/c3ccc4c(c3)OCO4)n2)cc1,i,-10,.,6.4,.,5.2,-0.1
O=C1OC2(CCCC2)OC(=O)C1=Cc1c[nH]c2ccccc12,i,-5.7,1%,1.6,0.68,0.6,.
COc1cccc(CC2(CO)CCN(CC3=CC[C@H]4C[C@@H]3C4(C)C)CC2)c1,i,3.9,2%,-2.2,0.68,1.2,4.8
CN(C)Cc1c(O)ccc2c(=O)c(-c3ccccc3)c(C(F)(F)F)oc12,i,-0.6,.,0.2,0.67,-19,-1.3
O=C(CSc1ncnc2nc[nH]c12)c1ccc2ccccc2c1,.,-4.8,?,-2.1,0.75,.,2.4
NC(=O)CN1CCN(S(=O)(=O)c2ccc(Cl)cc2)CC1,.,-0.1,4%,-3.8,0.68,-0.2,-0.4
Cc1cc(NC(=O)COC(=O)C2CCC2)no1,.,3.9,-2%,3.0,0.7,-2.5,-2.2
N#Cc1c(NC(=S)NC(=O)c2ccccc2)sc2c1CCCC2,.,2.4,-14%,2.1,0.68,.,5.0

More entries follow.
Molecule,FGF22 binding,UCH37 inh,Vif TR-FRET,HNF4A DNA FP,E coli growth,MLL AF4-AF9 inh,RanGTP-Imp inh
Cc1ccc(N2CCN(C(=O)N3CCCC3)CC2)cc1C,.,3.4,0%,-2.1,0.68,.,-5.7
CCCCOc1ccc(-c2ncc([N+](=O)[O-])cn2)cc1,i,4.8,-7%,0.8,0.67,2.7,1.6
CCCCNC(=S)NC(=O)c1ccccc1Br,i,1.2,.,3.0,0.66,-21,2.9
Cc1cccc(NS(=O)(=O)c2cccc(C(=O)NNC(=O)c3ccccc3O)c2)c1,i,.,?,-0.8,.,3.4,.
O=C(/C=C/c1ccc(Cl)cc1Cl)c1ccc[nH]1,i,3.2,?,4.7,0.71,3.2,-1.2
O=c1ccc2cc3c4c(c2o1)CCCN4CCC3,i,i,.,-113,0.66,-3.8,92*
OC(c1cccc(F)c1)c1ncc(-c2ccc(Oc3ccccc3)cc2)[nH]1 (stereo not drawn),i,.,.,2.7,.,10,.
CCn1cc(S(=O)(=O)CC(=O)Nc2ccc(C)cc2)c2ccccc21,.,0.0,11%,4.5,0.72,.,-0.5
COCCn1c(SCC(=O)N2CC(=O)Nc3ccccc32)nc2ccccc2c1=O,i,4.9,.,7.2,0.63,-0.2,-3.8
O=[N+]([O-])c1cc(S(=O)(=O)N2CCOCC2)ccc1OCc1cccc(Cl)c1,i,4.0,8%,-3.5,0.68,-1.5,.
OC1(c2ccc(Cl)cc2)CN(c2ccccc2)C2=[N+]1CCS2 (stereo not drawn),i,-0.5,16%,-3.2,0.69,2.4,-1.1
CCOc1ccc(CCNC(=O)CSc2nn(-c3ccc(C)c(Cl)c3)c(=S)s2)cc1OCC,i,8.7,.,-0.4,0.76,-0.3,?
COC(=O)/C(C#N)=C/c1ccc(C)o1,i,16,.,-2.0,0.67,1.0,-1.2
CCCCOc1ccc(CSc2ncn[nH]2)cc1,.,4.5,-7%,0.4,0.66,.,1.8
CC(C)c1ccc(C2C(C(=O)c3ccco3)=C(O)C(=O)N2CCN2CCOCC2)cc1 (stereo not drawn),i,2.9,.,4.2,0.69,1.8,4.1
Cc1ccc(NC(=O)C(C)Sc2nnc(C)n2C)cc1 (stereo not drawn),i,5.9,.,3.1,0.69,-1.2,-6.2
COc1ccc(C2/C=C\CN(C(=O)CC(C)C)CC(=O)N2Cc2ccc(F)cc2)cc1 (stereo not drawn),.,0.3,.,-5.3,.,.,-0.8
CCc1ccc(NC(=O)CSc2ccc(-c3ccccn3)nn2)cc1,i,-0.5,.,0.1,0.64,1.7,0.7
O=C(CCCC(=O)N/N=C/c1ccccc1C(=O)O)N/N=C/c1ccccc1C(=O)O,i,.,13%,-4.5,.,-2.2,5.8
O=c1c2ccccc2nc(-c2ccccc2)n1Cc1ccco1,.,1.3,-1%,1.9,0.72,.,-2.1
Cc1ccc(NC(=O)CCN2C(=O)C3CCCCC3C2=O)c(O)c1 (stereo not drawn),i,6.1,1%,1.2,0.65,1.0,-7.0
COc1ccc(-c2coc3c(C(=O)NCc4ccc(F)c(F)c4)cccc23)c(C)c1,i,.,.,-1.3,.,-2.5,.
COCCn1c(Sc2nc(C)cs2)nc2c1c(=O)[nH]c(=O)n2C,.,0.2,-3%,-0.9,0.69,.,-1.5

High-throughput results as filed in PubChem BioAssay.
